gsp ag: agonists of gsp mutant (McCune-Albright syndrome); Potency, µM (top dose mostly 76.9 µM), inactives show at the highest dose activation (cAMP increase), usual class: activators; gsp mutant cells, cAMP HTRF, 30 min; control for the full effect not named in the record; actives 0.13% (n = 340,000); active = well fitted activation curve with a large enough effect; inconclusive = small, poorly fitted or top-dose-only effect, or another doubt; inactive = no such curve, though single readings can be large or run the other way; cell line not stated here;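 further: phosphodiesterase inhibitor Ro 20-1724 added with compounds to block cAMP breakdown; potency means the concentration at half of the fitted maximal effect; nearly all actives have a fitted effect of over 60% in size; about a fifth of the inactives were tested at one dose only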
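Cells in DMEM/10% FBS with G418 were pretreated with compounds in DMSO plus […] (300 uM stock) for 30 min at 37C. cAMP was measured by HTRF (cAMP-d2 plus anti-cAMP antibody-K) after 30 min at room temperature.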
D2 potentiator: human D2 receptor positive allosteric modulation; actives 0.23% (n = 360,000); DiscoveRx D2 beta-arrestin cells, luminescence, 90 min; 100% = 57 uM dopamine signal; potentiation, % (no concentration beside the values); P14416; active = potentiation of 50% or more; inconclusive = 30% to 50%; inactive = 30% or less;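 further: compound concentration not given in the record; tested on top of an EC20 dose of dopamine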
Target sequence (P14416 whole entry, looked up): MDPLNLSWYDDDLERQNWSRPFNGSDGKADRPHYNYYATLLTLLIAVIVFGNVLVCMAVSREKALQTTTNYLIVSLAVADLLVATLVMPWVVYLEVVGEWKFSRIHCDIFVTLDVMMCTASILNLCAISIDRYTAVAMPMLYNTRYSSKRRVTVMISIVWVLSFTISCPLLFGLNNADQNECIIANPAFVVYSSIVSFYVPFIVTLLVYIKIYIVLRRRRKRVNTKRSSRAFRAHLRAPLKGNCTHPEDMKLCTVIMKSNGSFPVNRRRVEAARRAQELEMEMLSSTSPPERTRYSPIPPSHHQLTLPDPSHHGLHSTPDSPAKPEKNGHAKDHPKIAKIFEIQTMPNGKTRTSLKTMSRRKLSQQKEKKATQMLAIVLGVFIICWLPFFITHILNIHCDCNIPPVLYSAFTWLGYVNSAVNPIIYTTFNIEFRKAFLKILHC
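PathHunter beta-arrestin assay in DiscoveRx D2 cells. Compounds were added with an EC20 of dopamine (50 nM final) for 90 min at 37 deg C. Luminescence was read 1 h after detection reagent, with 57 uM dopamine as the EC100 control.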
ClpP mod: qHTS Assay for Activators of ClpP | ATP-dependent Clp protease proteolytic subunit (Bacillus subtilis (strain 168)), P80244 | purified B. subtilis ClpP, FRET peptide cleavage, 20 min | Potency, µM (top dose mostly 57.5 µM), without a hit: at the top dose activity change, negative = active | actives 1.9% (n = 340,000); active = well fitted falling curve with a large enough effect; inconclusive = small, poorly fitted or top-dose-only effect; inactive = no such curve, though single readings can be large or run the other way; further: potency means the concentration at half of the fitted maximal effect; the source files actives as falling curves though it sought activators and does not explain the sign; nearly all actives have a fitted effect of over 65% in size; many hits overshoot -100%
Target sequence (P80244 whole entry, looked up): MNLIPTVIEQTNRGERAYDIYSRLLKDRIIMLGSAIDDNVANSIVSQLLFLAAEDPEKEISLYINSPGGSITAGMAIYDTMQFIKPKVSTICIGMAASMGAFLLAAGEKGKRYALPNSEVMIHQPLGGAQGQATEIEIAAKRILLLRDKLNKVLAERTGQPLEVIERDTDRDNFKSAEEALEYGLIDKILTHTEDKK
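Purified B. subtilis ClpP, 10 microg/mL final in Tris/HCl pH8 with KCl, BSA, glycerol and Tween-20, cleaved an Abz/nitrotyrosine-quenched decapeptide. Fluorescence (ex 320, em 430) was read at 0 and 20 min at room temperature. Delta was normalized to 5.8 microM ADEP and DMSO/no-enzyme controls.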
TRPV1 potentiator: enhances activation of the human vanilloid receptor TRPV1. TRPV1-expressing cells, Fluo-8 calcium influx, capsaicin EC20 potentiation; host cell line not named in the record; control for the full effect not named in the record. potentiation, % at 8.33 µM. actives 0.02% (n = 320,000). AID 540277; active means potentiation above 80%; inconclusive means 30% to 80%; inactive means below 30%; further: 0% is about no effect
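Cells expressing TRPV1 were dye-loaded with Fluo-8 and read kinetically: 10 s baseline, 3 min after compound (agonist portion), then 2 min after EC20 capsaicin (allosteric enhancer portion). Calcium-bound dye fluorescence at 480/520 nm.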
Menin MLL FP FL: displaces fluorescein MLL peptide from human menin; 290,000 tested, under 10 active; AID 1766; FP activity change, % at 61.4 µM; Fluorescence polarization, fluorescein-MLL peptide displacement from menin; inconclusive = falling polarisation curve, or a change in total fluorescence; inactive = total fluorescence flat and polarisation flat or rising; no compound was filed as active; the % refers to the polarisation; negative = inhibition;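 further: % of control where 0% means no effect; inhibitors lower the polarisation; unlabelled MLL peptide was the positive control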
Sfp PPTase inh: blocks B. subtilis Sfp PPTase activity; Q9F4F7; Biochemical Sfp PPTase activity, qHTS; Potency, µM, for the others: max response, negative = inhibition, hits mostly inhibitors; actives 3.5% (n = 310,000); AID 1490; active means well fitted inhibition curve with a large enough effect; inconclusive means small, poorly fitted or top-dose-only effect, or another doubt; inactive means no such curve, though single readings can be large or run the other way;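 further: the enzyme is Sfp with the accession as filed and its product quenches rhodamine fluorescence; potency means the concentration at half of the fitted maximal effect; 0% = enzyme reaction without inhibitor and -100% = no enzyme wells; top concentration of the series not given in the record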
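Sfp 15 nM + cpd, 15 min RT; start w/ rhodamine-CoA 5 uM, BHQ-2-YbbR 12.5 uM (final); 50 mM Hepes pH 7.6, 10 mM MgCl2, 0.01% NP-40, 0.01% BSA; read 525/598 nm at 0 and 30 min.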
gsp antag: antagonizes gsp, the McCune-Albright syndrome mutation | gsp-mutant cells, cAMP HTRF, 30 min; control for the full effect not named in the record | Potency, µM (titrated, usually from 76.9 µM), without a hit: at the top dose activity change, negative = inhibition, actives largely listed as inhibitors | actives 0.4% (n = 340,000); active = falling curve of any shape with a large fitted effect; inconclusive = falling curve, mostly with a smaller effect; inactive = flat or rising curve; cell line not stated here;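 further: intracellular cAMP measured with PDE inhibitor Ro 20-1724 present during compound exposure; potency means the concentration at half of the fitted maximal effect; on the % scale 0 is the no-effect control and ±100 the full control effect; nearly all actives have a fitted effect of over 65% in size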
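HTRF cAMP read-out (cAMP-d2 plus anti-cAMP antibody-K in lysis buffer, 30 min RT). Before lysis, cells are exposed to compounds with […] for 30 min at 37C in DPBS containing Ca/Mg, BSA and Tween 20.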
* = called active by the depositor; i = inactive; ? = inconclusive; nt = no result given; & = joins results of further samples; [ ] = another dose, or the depositor's remark. No enrichment for hits. About 5.1% of those tested had a hit in this group.

structure	gsp ag	D2 potentiator	ClpP mod	TRPV1 potentiator	Menin MLL FP FL	Sfp PPTase inh	gsp antag
O=C(CSc1ccc(-c2cccnc2)nn1)N1CCCCC1	-5%	-14	-2.2%	1	-2.3	2%	-4%
CCCC1(CCC)NC(=O)N(CC(=O)Nc2ccc3c(c2)OCCO3)C1=O	6%	-2	nt	nt	nt	nt	-1%
CCOC(=O)C1=C(C)N=c2s/c(=C\c3ccc(OCC(=O)O)cc3)c(=O)n2C1c1ccc(Cl)cc1 (stereo unspecified)	-27%	-5	nt	-6	?	-3%	?
CC1=C(C(=O)OCc2ccccc2)C(c2ccsc2)NC(=O)N1C (stereo unspecified)	13%	-2	-1.7%	-1	5.7	13%	-4%
Cc1cc([N+](=O)[O-])nn1CC(=O)NCc1ccc(Cl)cc1	-5%	-4	1.7%	-18	4.3	17%	5%
CCN(CC)S(=O)(=O)c1cc([N+](=O)[O-])ccc1N1CCC(C(N)=O)CC1	12%[15.4 µM]	2	nt	-7	-0.8	0%	-13%
CN(Cc1ccccc1)C(=O)C(C(=O)c1ccc(F)cc1)n1cc(Cl)ccc1=O (stereo unspecified)	13%	-5	2.3%	-8	6.5	5%	-9%
Cn1c(=O)n(Cc2ccccc2)c(=O)c2c1nc1n2CCCN1C1CCCCC1	-3%[15.4 µM]	-2	nt	nt	nt	nt	3%
Clc1ccc(Nc2ncnc3c2cnn3-c2ccccc2)cc1	-11%	-1	3.7%	0	-1.4	?	-22%
O=C(O)C1Cc2ccccc2CN1C(=O)COc1ccc(Br)cc1 (stereo unspecified)	5%[15.4 µM]	-10	nt	7	3.0	13%	7%
COc1ccc(NC(=O)COC(=O)CCc2ccc(S(=O)(=O)N3CCOCC3)cc2)cc1Cl	2%[15.4 µM]	-17	-1.7%	nt	nt	nt	-2%
COc1ccc(CNC(=S)N/N=C(/C)c2ccccc2)cc1	16%[15.4 µM]	-7	-0.4%	1	-0.8	6%	-12%
Cc1c(C(=O)c2ccc(F)cc2F)c2ccccn2c1CCc1ccccn1	-64%[inhibitor]	-11	-4.0%	nt	nt	nt	nt
CS(=O)(=O)c1ccc2nc(NC(=O)C3CC3)sc2c1	-6%	2	-0.2%	nt	nt	nt	-5%
CCC(C)NC(=O)CS(=O)(=O)Cc1nc(-c2cccc(OC)c2)oc1C (stereo unspecified)	-59%[inhibitor]	-3	-13%	-11	-0.6	1%	-1%
O=[N+]([O-])c1cccc(CSc2ncnc3ccccc23)c1	-19%	-9	1.4%	7	-0.3	?	3%
COC(=O)c1ccc(-c2nc3ccccc3[nH]2)cc1	2%	4	57%	-37	1.6	4%	-10%
O=C(NC(=S)NCc1ccccc1)c1ccccc1	4%	-8	nt	-6	5.7	-2%	4%
COC(=O)c1n[nH]n(-c2cc(Cl)cc(Cl)c2)c1=O	-14%[15.4 µM]	-3	0.3%	25	5.9	30%	15%
COCCn1c(-c2ccc(-c3ccc([N+](=O)[O-])cc3Br)o2)nc2c1c(=O)[nH]c(=O)n2CC(C)C	6%[15.4 µM]	-3	-3.7%	20	9.5	28µM*	-8%
O=C(COC(=O)c1cccnc1)Nc1cccc(Cl)c1	10%	-7	-2.3%	12	-1.0	15%	0%
Cc1ccc(C2=CSC3=NCCN23)cc1	-3%[15.4 µM]	-11	nt	nt	nt	nt	13%
CCC(C)C(NC(=O)OCc1ccccc1)C(=O)NCC(c1ccccc1)N(C)C (stereo unspecified)	0%[15.4 µM]	-10	-5.3%	-12	-0.9	-1%	0%
O=C(CCCNS(=O)(=O)c1cccc2nsnc12)NCCN1CCN(c2ccccc2F)CC1	-9%	-6	-2.3%	5	-2.7	13%	-4%
CCOC(=O)C1CCN(C(=S)Nc2cc(C)ccc2C)CC1	-20%	3	0.7%	4	0.1	3%	10%

Ordered by length of the SMILES (smallest number first): part of the list above
structure	gsp ag	D2 potentiator	ClpP mod	TRPV1 potentiator	Menin MLL FP FL	Sfp PPTase inh	gsp antag
O=C(COC(=O)c1cccnc1)Nc1cccc(Cl)c1	10%	-7	-2.3%	12	-1.0	15%	0%
CN(Cc1ccccc1)C(=O)C(C(=O)c1ccc(F)cc1)n1cc(Cl)ccc1=O (stereo unspecified)	13%	-5	2.3%	-8	6.5	5%	-9%
CCOC(=O)C1=C(C)N=c2s/c(=C\c3ccc(OCC(=O)O)cc3)c(=O)n2C1c1ccc(Cl)cc1 (stereo unspecified)	-27%	-5	nt	-6	?	-3%	?

Following part:
structure	gsp ag	D2 potentiator	ClpP mod	TRPV1 potentiator	Menin MLL FP FL	Sfp PPTase inh	gsp antag
Cc1ccc2c(Cl)c(Cc3ccccc3)c(=S)[nH]c2n1	-19%	-2	-3.3%	nt	nt	nt	0%
C=CCNC(=O)c1cc2c(=O)n3ccccc3nc2s1	?	-2	3.4%	11	-5.7	10%	4%
Cn1c(SCC(=O)NCc2cccs2)nnc1-c1ccc(S(=O)(=O)N2CCCC2)cc1	28%	-10	-3.7%	-5	2.1	21%	6%
CCN(CC)CCNC(=O)CCCNC(=O)Cn1cnc2sc(C)c(C)c2c1=O	-22%	6	-1.2%	4	3.3	9%	16%
CC1CC(C)CN(C(=O)COC(=O)c2cc3ccccc3oc2=O)C1 (stereo unspecified)	-11%	6	35µM*	nt	nt	nt	-1%
CCC(C)NC(=O)c1ccc(NS(=O)(=O)c2ccc3[nH]c(=O)[nH]c3c2)cc1 (stereo unspecified)	-24%	-13	-4.7%	-17	nt	8%	10%
C=CCOc1ccccc1CN1CCC(C(=O)Nc2cccc(-c3ccn[nH]3)c2)CC1	?	-33	-0.9%	4	-0.7	3%	4%
O=C(CCC(=O)c1ccccc1)NCc1cccc(C(F)(F)F)c1	5%	-16	-0.8%	0	nt	nt	8%
CC1CCN(c2nc(-c3ccccc3)cc(C(F)(F)F)n2)CC1	6%	10	?	-10	4.5	4%	6%
COCCNC(=O)COC(=O)c1cc(-c2ccc(OC)cc2)nc2ccccc12	4%[15.4 µM]	-3	nt	-18	-1.7	-6%	-1%
Cc1cc(NC(=O)c2ccccc2F)cc(C)c1OCC(=O)N1CCOCC1	-43%[inhibitor]	4	-27%	-3	nt	20%	6%
COc1ccc2c(C)cc(SCC(=O)N3CCOCC3)nc2c1	9%[15.4 µM]	1	-1.1%	0	?	10%	-17%
COc1ccc(CCNC(=O)C23CCC(C)(C(=O)C2Br)C3(C)C)cc1OC (stereo unspecified)	?	-4	nt	4	0.5	4%	7%
CCOC(=O)c1ccc(N=C2NC(=O)CS2)cc1	-24%	1	0.4%	-3	5.2	6%	2%
COc1ccc(S(=O)(=O)N2CCN(c3c(C)cccc3C)CC2)cc1OC	26%	1	0.4%	nt	0.1	?	-18%
CCCCC[C@]12Cc3ccccc3C(O1)C1=C(CC(C)(C)CC1=O)O2	nt	nt	nt	i	6.2[11.7 µM]	8%	nt
CC1=C(C(=O)N2CCN(C(=O)c3ccco3)CC2)C2(CCC(C)CC2)OC1=O (stereo unspecified)	-26%	-1	1.8%	?	1.8	26%	7%
COc1ccccc1-c1coc2cc(OC(=O)N3CCOCC3)ccc2c1=O	-35%[inhibitor]	-4	-0.2%	1	-0.3	5%	14%
CCOC(=O)c1nsnc1NCCSC(=N)N	-71%[inhibitor]	-6	4.3%	0	1.5	3%	8%
Cn1ncc(Br)c1N1C(=O)CCC1=O	?	1	nt	2	4.8	5%	6%
NNC(=O)c1cc(-c2cccs2)nc2ccccc12	-25%	-4	3.3%	16	1.7	10%	7%
Cc1cc(C)cc(OCCNC(=O)c2cc(S(=O)(=O)N3CCOCC3)ccc2F)c1	-1%[15.4 µM]	-8	nt	13	-2.1	5%	-8%
Cc1ccccc1NC(=O)Cn1nnc(C(=O)NCc2ccco2)c1N	-3%	-12	0.2%&0.0%	-5	-0.6	4%	4%
O=C(NCCCN1CCCCC1)c1ccc(CS(=O)c2ccc(F)cc2)o1 (stereo unspecified)	0%	-4	-5.6%	-7	nt	10%	14%
CC(C)C[C@@H](CN1CCCC1CN1C(=S)NC[C@@H]1Cc1ccc(O)cc1)N1C[C@H](Cc2ccccc2)N(CCc2ccccc2)C1=S (stereo partly specified)	nt	-9	-8.1%	nt	nt	nt	7%

Next structures follow.
structure	gsp ag	D2 potentiator	ClpP mod	TRPV1 potentiator	Menin MLL FP FL	Sfp PPTase inh	gsp antag
O=C(NC(=S)NCc1cccnc1)c1ccccc1	7%	7	-0.5%	-1	-2.7	12%	0%
CCOC(=O)c1oc2ccccc2c1COC(=O)C(C)NC(=O)c1ccco1 (stereo unspecified)	?	0	-13%	-9	nt	nt	-16%
Cc1c(-c2n[nH]c(=S)n2-c2ccc(C(F)(F)F)cc2)nnn1-c1ccccc1	-38%[inhibitor]	-18	0.4%	-4	8.7	2%	-8%
CCCCN1CCc2c([nH]c3c(C)cccc23)C1=O	-40%	17	10%	1	-3.4	-12%	1%
CC(=O)Oc1ccc(C2=Cc3ccc(OC(C)=O)cc3OC2C)cc1 (stereo unspecified)	3%	4	nt	nt	nt	nt	?
CCOC(=O)C1(CCCc2ccccc2)CCN(C(=O)CN2CCOC2=O)CC1	?	-2	0.9%	-6	0.6	-6%	-3%
Cc1c(C=C2C(=O)c3ccccc3C2=O)cc(C#N)n1C	?	-4	0.1%	7	39[activator]	16%	3%
COc1ccc(OCCn2cnc3ccccc32)cc1	-30%	-3	nt	-20	1.2	-4%	5%
Cc1cc(C(=O)C(C(c2ccccc2)N2CCOCC2)N2CCOCC2)ccc1Cl (stereo unspecified)	14%	-10	nt	nt	nt	nt	-3%
COc1ccccc1C(=O)CSc1ccccn1	-16%[15.4 µM]	-4	nt	6	-0.3	2%	19%
CC(C)NC(=O)c1ccc(-c2ccc(Cl)c(C(F)(F)F)c2)o1	-4%	1	?	-4	1.4	0%	3%
O=C(CCO)c1ccc(O)cc1	nt	-21	-4.8%	1	0.4	-7%	3%
COc1ccc(OC)c(/C=C/C(=O)OCC(=O)NCc2cccs2)c1	?	0	-3.9%	-2	nt	nt	-13%

From PubChem BioAssay
